rRNA inh HTS = selective bacterial rRNA inhibition in E. coli | AID 720706 | 350,000 compounds, 1.6% hits | GFP signal change (wild-type ribosome), % (no concentration beside the values) | E. coli WT GFP vs humanized-ribosome RFP mutants, fluorescence, 24 h; active compounds read low; DMSO median 0, no signal -100;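 active = significant combined selectivity score with lowered wild-type GFP, culture density cut under 30%, mutant RFP and density less affected; inactive = any of these conditions unmet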; also: one replicate is shown; some compounds called inactive have numbers as strong as hits
rRNA inh HTS OD600 = recorded beside rRNA inh HTS, whose call it bears; OD600 change, %; measured here: OD600 growth;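 optical density of the mix in the first replicate; 0 = DMSO median and -100 = no signal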
rRNA inh HTS RFP = further read-out of rRNA inh HTS, marked with its call; RFP signal change, %; measured here: RFP humanized mutant strains;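 first replicate; 0 = DMSO median and -100 = no signal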
* = called active by the depositor. An excerpt (hit frequency here may not be typical).

rRNA inh HTS	rRNA inh HTS OD600	rRNA inh HTS RFP	mol
1	-2	9.5	CCCN1[C@@H]2Cn3c(ccc(C4=CCCCC4)c3=O)[C@H]1[C@@H](C(=O)N1CCc3ccccc3C1)[C@@H]2CO
3	6	-6.5	CCC(=O)N1CC(=O)N2[C@H](CO)[C@@H](c3ccc(-c4cccnc4)cc3)[C@H]2C1
-13	-19	-2.7	C[C@@H]1CN([C@H](C)CO)C(=O)c2cccc(NC(=O)c3ccncc3)c2O[C@H]1CN(C)Cc1ccc(C(F)(F)F)cc1
3	-4	-3.1	Cc1ccc(S(=O)(=O)N[C@@H]2CC[C@@H](CC(=O)NCCc3ccncc3)O[C@@H]2CO)cc1
5	-7	2.5	O=C(COC(=O)C1CC(=O)N(Cc2ccccc2)C1)Nc1ccc([N+](=O)[O-])cc1Br (stereo unspecified)
-2	-2	-4.4	Cc1cccc(N2CCN(C(=O)COc3noc4nc(C)cc(C)c34)CC2C)c1 (stereo unspecified)
3	11	-0.4	COc1ccc(C)cc1N1CC(C(=O)Nc2cccc(C(=O)NC3CC3)c2)CC1=O (stereo unspecified)
-4	-20	8.2	C[C@H]1CN([C@@H](C)CO)S(=O)(=O)c2ccc(C3=CCCCC3)cc2O[C@H]1CN(C)Cc1cncnc1
-5	-13	0.9	C[C@H](CO)N1C[C@H](C)[C@H](CN(C)Cc2ccc(Cl)c(Cl)c2)Oc2c(NC(=O)Nc3ccc4c(c3)OCO4)cccc2C1=O
-4	3	-2.8	C[C@@H]1CCCCO[C@H](CN(C)Cc2ccncc2)[C@@H](C)CN([C@@H](C)CO)C(=O)c2cc(N(C)C)ccc2O1
2	9	-2.9	Cc1ccc(S(=O)(=O)N[C@@H]2C=C[C@H](CC(=O)NCCc3ccncc3)O[C@H]2CO)cc1
-1	-5	3.3	C[C@H]1CN([C@@H](C)CO)C(=O)c2cc(NC(=O)Nc3ccc(F)cc3)ccc2O[C@H]1CN(C)S(=O)(=O)c1cn(C)cn1
-55	-66	-7.8	O=S(=O)(Cc1ccccc1)N1CCCCN2[C@@H](CO)[C@@H](c3ccc(-c4ccccc4)cc3)[C@@H]2C1
7	-10	1.9	COc1ccccc1-c1cnc(C(O)c2ccc(Cl)cc2)[nH]1 (stereo unspecified)
9	-3	-0.9	C[C@H](CO)N1C[C@H](C)[C@@H](CN(C)S(C)(=O)=O)Oc2ccc(NC(=O)C3CCCCC3)cc2CC1=O
1	1	-3.9	O=C(CC1CC1)N1CC2(C1)[C@H](c1ccccc1)[C@@H](CO)N2C(=O)c1cnccn1
2	-1	-1.0	C[C@H]1CN([C@@H](C)CO)S(=O)(=O)c2ccc(C3=CCCC3)cc2O[C@@H]1CN(C)C(=O)c1cccnc1
3	2	-0.5	CN(C)CC(=O)N1[C@H](C#N)[C@@H](c2ccc(-c3cccc(C(=O)N(C)C)c3)cc2)[C@H]1CO
1	-3	1.4	C[C@@H]1CN([C@H](C)CO)C(=O)c2cccc(NS(=O)(=O)c3ccc(Cl)cc3)c2O[C@@H]1CN(C)C
1	0	0.6	O=C(C[C@@H]1C[C@H]2c3cc(NC(=O)C4CCC4)ccc3O[C@H]2[C@@H](CO)O1)NCc1ccc2c(c1)OCO2

Single records, from the list above. Screens in order: rRNA inh HTS	rRNA inh HTS OD600	rRNA inh HTS RFP
Results for `Cc1ccc(S(=O)(=O)N[C@@H]2C=C[C@H](CC(=O)NCCc3ccncc3)O[C@H]2CO)cc1` → 2	9	-2.9
Results for `COc1ccc(C)cc1N1CC(C(=O)Nc2cccc(C(=O)NC3CC3)c2)CC1=O` (stereo unspecified) → 3	11	-0.4
Results for `O=S(=O)(Cc1ccccc1)N1CCCCN2[C@@H](CO)[C@@H](c3ccc(-c4ccccc4)cc3)[C@@H]2C1` → -55	-66	-7.8
Results for `CCCN1[C@@H]2Cn3c(ccc(C4=CCCCC4)c3=O)[C@H]1[C@@H](C(=O)N1CCc3ccccc3C1)[C@@H]2CO` → 1	-2	9.5
Results for `O=C(C[C@@H]1C[C@H]2c3cc(NC(=O)C4CCC4)ccc3O[C@H]2[C@@H](CO)O1)NCc1ccc2c(c1)OCO2` → 1	0	0.6

The listing continues.
rRNA inh HTS	rRNA inh HTS OD600	rRNA inh HTS RFP	mol
1	1	2.2	C[C@@H]1CN([C@@H](C)CO)C(=O)Cc2cc(NC(=O)Cn3cnnn3)ccc2O[C@H]1CN(C)CC1CCCCC1
4	5	-4.2	CN1CCN(C(=O)C[C@H]2CC[C@H]3[C@@H](COc4ccc(NC(=O)C5CC5)cc4C(=O)N3C)O2)CC1
-43	-58	42	CN(C)C(=O)c1cccc(-c2cnc3c(NC=O)cc(-c4cccc(C(F)(F)F)c4)cn23)c1
2	7	-3.8	CCCN1[C@@H]2c3ccc(-c4ccccc4OC)c(=O)n3C[C@H]1[C@H](CO)[C@H]2C(=O)NCc1ccccn1
-6	-9	-0.3	COC(=O)C[C@@H]1CC[C@H]2[C@H](COc3ccc(NC(=O)c4ccc(F)c(F)c4)cc3C(=O)N2C)O1
-1	2	4.2	C/C=C/c1ccc([C@@H]2[C@@H](CO)N(C(=O)CC)[C@H]2CNC(=O)CC2CC2)cc1
2	12	-1.2	C[C@@H]1CN([C@@H](C)CO)C(=O)c2cc(C#C[C@@H](C)O)cnc2O[C@H]1CN(C)Cc1cccc(F)c1
-1	-1	0.1	CO[C@@H]1CN(C)C(=O)c2ccc(NC(=O)c3cc(C)on3)cc2OC[C@@H](C)N(C(=O)C2CCC2)C[C@H]1C
-2	5	-0.2	Cc1noc(C)c1NC(=O)Nc1cccc2c1O[C@H](CN(C)Cc1ccc3c(c1)OCO3)[C@H](C)CN([C@@H](C)CO)C2=O
-7	6	-9.7	CC(C)NC(=O)C1(C)CN(S(C)(=O)=O)CC(=O)N1Cc1cccc(C(F)(F)F)c1 (stereo unspecified)
-11	-8	1.1	Cc1ccc(NC(=O)N2CC(C)OC(C)C2)cc1[N+](=O)[O-] (stereo unspecified)
1	1	-2.7	C[C@H](O)C#Cc1ccc2c(c1)O[C@@H](CN(C)C(=O)CC1CC1)[C@H](C)CN([C@H](C)CO)S2(=O)=O
3	10	-2.7	Cc1cc(C(=O)Nc2cccc3c2O[C@H](CN(C)C(=O)Nc2ccccc2)[C@@H](C)CN([C@@H](C)CO)C3=O)n(C)n1
-3	-8	2.2	C[C@@H]1CN([C@@H](C)CO)C(=O)c2c(c3ccccc3n2C)-c2ccccc2CO[C@@H]1CN(C)S(=O)(=O)Cc1ccccc1
-53	-67	-17	COc1cc2c(cc1[N+](=O)[O-])-c1ccc([N+](=O)[O-])cc1C2=NO
-3	-6	-4.6	CCC(=O)N1C[C@@H](O)COC[C@@H]2O[C@@H](CC(=O)NCc3cc(F)cc(F)c3)CC[C@H]21
4	11	-4.2	CC(C)[C@@H]1COCn2nncc2CC[C@H](Cc2ccccc2)C(=O)N1
0	12	-1.6	CC(=O)N1CCCCN2[C@@H](CO)[C@@H](c3ccc(-c4cccc(C)c4)cc3)[C@@H]2C1
4	3	-0.7	Cc1ccccc1S(=O)(=O)N1C[C@@H](O)COC[C@@H]2O[C@H](CC(=O)N3CCN(C)CC3)CC[C@H]21
-46	-72	-9.4	CC1(C(=O)NCc2cccc3ccccc23)CCN1CCc1ccccc1 (stereo unspecified)
-52	-79	-7.5	COc1cccc(CN2[C@@H]3CNC[C@H]2C3c2ccc(/C=C/c3ccccc3)cc2)c1 (stereo partly specified)
1	2	-1.9	C/C=C/c1ccc([C@H]2[C@@H](CO)N(C(=O)C3CC3)[C@H]2CN(C)C(=O)CC)cc1
9	5	1.2	Cc1ccsc1CN(C)c1ncnc2ccc(-c3ccoc3)cc12
4	-2	-2.2	C[C@H](CO)N1C[C@H](C)[C@H](CN(C)C)Oc2cc(C#C[C@@H](C)O)ccc2S1(=O)=O
7	11	-1.5	CO[C@@H]1CC[C@@H]2CCN(C)C(=O)[C@@H](C)CN(C)C(=O)c3cccc(C#N)c3OC[C@H]1O2
2	5	6.5	N#Cc1ccc(S(=O)(=O)N2CCCc3nc(-c4ccccc4)ccc32)cc1
2	-2	-3.4	COCCNC(=O)C[C@@H]1C[C@@H]2c3cc(NC(=O)Nc4ccc(F)cc4)ccc3O[C@@H]2[C@H](CO)O1
4	7	-0.9	COCC(=O)N1CC(=O)N2[C@@H](CO)[C@H](c3ccc(C#CCc4ccccc4)cc3)[C@@H]2C1
-2	-6	-5.4	CO[C@H]1CN(C)C(=O)c2cc(NS(=O)(=O)c3cn(C)cn3)ccc2OC[C@@H](C)N(CC2CC2)C[C@@H]1C
-6	-21	6.2	C#CCNC(=O)C[C@@H]1C[C@@]2(C(=O)OC)CC(C)(C)CC=C2N(Cc2cccc3ccccc23)C1=O
-12	-13	-2.2	Cc1c(C(=O)NCc2ccc3c(c2)OCCO3)sc(=O)n1Cc1ccc2c(c1)OCO2
0	-9	1.1	COc1ccc(C(=O)N2C=Cc3ccccc3C2C(N)=O)cc1 (stereo unspecified)
0	6	-0.9	C[C@@H]1CN([C@@H](C)CO)S(=O)(=O)c2ccc(C#CCN(C)C)cc2O[C@@H]1CN(C)C(=O)C1CCC1
-58	-82	-21	OC(c1cc(Cl)cc(Cl)c1)c1ncc(-c2ccccc2C(F)(F)F)[nH]1 (stereo unspecified)
-14	-21	-10	Cc1noc(C)c1-c1ccc(C(=O)Nc2cccc(C(F)(F)F)c2)c2occc12
5	5	-0.2	CC(NCCCSc1ccccc1)C(O)c1ccc(O)cc1 (stereo unspecified)
4	5	-2.5	C[C@H](CO)N1C[C@H](C)[C@H](CN(C)C(=O)c2ccncc2)Oc2cc(C#CC3(O)CCCC3)ccc2S1(=O)=O
7	11	2.3	CCCCCCN1CCN(C2CN(Cc3ccc([N+](=O)[O-])cc3)S(=O)(=O)C2)CC1 (stereo unspecified)
6	8	1.2	CCCCCCCCN1C(=O)[C@H](CC(=O)N2CCN(C(=O)OCC)CC2)C[C@@]2(C(=O)OC)CC(C)(C)CC=C12
-1	-3	5.4	CCCN1C[C@@H](C)[C@H](OC)CN(C)C(=O)c2ccc(NC(=O)c3cccc(OC)c3)cc2OC[C@H]1C

Three of these compounds in another layout.
SMILES | rRNA inh HTS | rRNA inh HTS OD600 | rRNA inh HTS RFP
C#CCNC(=O)C[C@@H]1C[C@@]2(C(=O)OC)CC(C)(C)CC=C2N(Cc2cccc3ccccc23)C1=O | -6 | -21 | 6.2
Cc1c(C(=O)NCc2ccc3c(c2)OCCO3)sc(=O)n1Cc1ccc2c(c1)OCO2 | -12 | -13 | -2.2
COc1ccc(C(=O)N2C=Cc3ccccc3C2C(N)=O)cc1 (stereo unspecified) | 0 | -9 | 1.1

Next section
rRNA inh HTS	rRNA inh HTS OD600	rRNA inh HTS RFP	mol
-3	-2	0.6	C[C@@H]1CN([C@@H](C)CO)C(=O)c2cccc(NC(=O)C3CCCCC3)c2O[C@@H]1CN(C)S(=O)(=O)c1ccccc1
6	2	1.2	C[C@@H]1CCCCO[C@@H](CN(C)C(=O)Cc2ccccc2)[C@@H](C)CN([C@@H](C)CO)C(=O)c2cc(NC(=O)Nc3ccccc3)ccc2O1
1	4	-1.6	C[C@@H]1CN([C@H](C)CO)C(=O)Cc2cc(NS(=O)(=O)c3cn(C)cn3)ccc2O[C@H]1CN(C)S(=O)(=O)c1ccccc1
-2	1	2.3	CC(=O)N1CC2(C1)[C@H](c1ccccc1)[C@H](CO)N2Cc1cc(F)ccc1F
1	2	-0.3	C[C@@H]1CN([C@H](C)CO)C(=O)c2ccccc2-c2ccccc2CO[C@H]1CN(C)C(=O)[C@@H](Cc1ccccc1)N(C)C
2	5	-0.4	CN1CCN(C(=O)[C@@H]2[C@@H](CO)[C@@H]3Cn4c(cccc4=O)[C@H]2N3S(=O)(=O)c2ccccc2F)CC1
6	8	-0.1	COC(=O)C[C@@H]1CC[C@@H]2[C@H](COC[C@@H](O)CN2CCC(F)(F)F)O1
-4	-10	-1.9	Cc1ccccc1S(=O)(=O)N[C@H]1CC[C@@H](CCn2cc(-c3ccc(F)cc3)nn2)O[C@H]1CO
-10	-4	-1.6	CC1(C(=O)O)CCCN(C(=O)C2(c3ccc(Cl)cc3)CCCC2)C1 (stereo unspecified)
7	5	0.3	CCOC(=O)c1c[nH]n2c(=S)ncnc12
6	4	-0.3	COC(=O)C1=CN(c2ccc(C(C)(C)C)cc2)C(N)=C(C#N)C1c1cccc([N+](=O)[O-])c1 (stereo unspecified)
-1	-1	1.2	C[C@@H]1CN([C@@H](C)CO)C(=O)Cc2cc(NC(=O)Cc3cn(C)c4ccccc34)ccc2O[C@@H]1CN(C)C(=O)Nc1ccccc1
-12	-12	1.0	O=C(NCc1ccccc1)C1C(c2ccccc2)=Nc2ccccc2N1C(=O)c1ccncc1 (stereo unspecified)
